Source: PubChem BioAssay (several laboratories)
PTPN22 act – increases human PTPN22 phosphatase activity; recombinant LYP, DiFMUP fluorescence; 0 = plate median, 100 = signal doubled; activation, % at 2 µM; hit rate 0.11% among 96,000; AID 697;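 active = activation at 2 µM above a set limit, the mean plus 5 SD, cut at about 37% in these data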
Target sequence (Q9Y2R2 whole entry, looked up): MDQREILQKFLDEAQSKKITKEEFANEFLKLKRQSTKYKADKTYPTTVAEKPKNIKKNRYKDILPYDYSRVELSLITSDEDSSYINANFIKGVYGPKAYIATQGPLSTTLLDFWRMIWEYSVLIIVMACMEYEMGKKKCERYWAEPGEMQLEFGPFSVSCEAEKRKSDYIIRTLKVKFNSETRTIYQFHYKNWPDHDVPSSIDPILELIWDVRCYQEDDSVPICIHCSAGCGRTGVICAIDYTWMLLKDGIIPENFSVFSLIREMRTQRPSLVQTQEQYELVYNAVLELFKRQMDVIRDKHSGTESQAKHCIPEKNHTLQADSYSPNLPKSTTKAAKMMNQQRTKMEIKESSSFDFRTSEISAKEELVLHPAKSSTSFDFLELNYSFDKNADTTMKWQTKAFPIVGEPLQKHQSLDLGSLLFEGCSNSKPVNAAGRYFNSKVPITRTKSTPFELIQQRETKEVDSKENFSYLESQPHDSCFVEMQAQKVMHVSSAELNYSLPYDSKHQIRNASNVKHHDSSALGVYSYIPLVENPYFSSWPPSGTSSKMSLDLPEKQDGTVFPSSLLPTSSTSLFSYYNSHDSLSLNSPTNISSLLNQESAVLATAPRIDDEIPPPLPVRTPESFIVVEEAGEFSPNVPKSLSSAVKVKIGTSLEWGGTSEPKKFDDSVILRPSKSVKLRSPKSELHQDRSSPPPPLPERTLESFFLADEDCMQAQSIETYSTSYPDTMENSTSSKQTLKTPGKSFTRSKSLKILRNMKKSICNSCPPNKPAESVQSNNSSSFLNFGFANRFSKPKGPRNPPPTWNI
HUVEC inhibit – blocks proliferation of human endothelial cells; HUVEC proliferation, CellTiter-Glo luminescence, 72 h; active compounds read low; viability, % at 10 µM (by protocol); hit rate 1.1% among 86,000; AID 648;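 active = viability at or below 30%; inactive = viability above 30%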;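 also: 100% = median luminescence of DMSO-only cell control wells on each plate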
PostGolgi ctrl – growth of the yeast control strain, post-Golgi counter-screen; inhibition, % at 10 µM; efflux-deficient yeast background strain, growth absorbance A615, 16 h; AID 738; hit rate 5% among 98,000; in the data active = inhibition above about 30%
Lung fibro prol – blocks proliferation of human lung fibroblasts. LL 47 human lung fibroblast viability, ATP luminescence; active compounds read low. viability, % at 10 µM. hit rate 1.1% among 85,000. AID 719;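 active = viability at or below 50% in the single dose screen; inactive = viability above 50%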;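 also: compound exposure lasted 72 h before the ATP readout; 100% = median luminescence of untreated cell-only wells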
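Material: human LL 47 lung fibroblast cells; quantity: 1,150 cells/well; medium: IMEM plus 15% FBS; doses: 0.1% DMSO in all compound wells; timing: overnight attachment after seeding, then 72 h compound exposure at 37 °C; detection: CellTiter-Glo luminescence; measure: % viability of median cell-only signal; controls: cell-only wells, no compound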
S1P2 blocker – antagonists of human S1P2 receptor; O95136; cell-based S1P2 antagonist assay, inhibition at 5 uM; inhibition, % at 5 µM; hit rate 0.21% among 97,000; AID 736; in the data active = inhibition above about 45%;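 also: CRE beta-lactamase reporter cells expressing human S1P2 stimulated with S1P; 0% = agonist at EC80 alone and 100% = agonist plus reference antagonist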
S1P2 agonist – S1P2 (human) receptor agonism | S1P2-expressing cell line, agonist reporter read-out | O95136 | activation, % at 4.5 µM | AID 729 | hit rate 0.46% among 97,000; in the data active = activation above about 16%;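 also: 0% = vehicle low control and 100% = maximal reference agonist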
H69AR inhibit – growth inhibitors of human H69AR lung tumor cells. H69AR lung tumor viability, ATP luminescence, 72 h; active compounds read low. hit rate 6% among 85,000. viability, % at 10 µM;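 active = viability at or below 40%; inactive = viability above 40%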;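 also: multidrug resistant small cell line overexpressing MRP-1 efflux transporter; 100% = mean luminescence of untreated control wells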
Active calls of the source: *; / = no result given; & = joins results of further samples.

SMILES	PTPN22 act	HUVEC inhibit	PostGolgi ctrl	Lung fibro prol	S1P2 blocker	S1P2 agonist	H69AR inhibit
O=C(Nc1cccc(C(F)(F)F)c1)C1CCCN(c2ncccn2)C1 (stereo unspecified)	1.4	93.7	16.6	101.9	-7.3	-5.3	69.8
C=CCn1c(CCNC(=O)c2ccccc2F)nnc1SCc1nc2ccccc2c(=O)[nH]1	-2.5	83.4	11.7	88.6	-4.1	-0.9	83.0
C/C(=N\NC(=O)c1ccccc1O)c1c(O)cc(C)oc1=O	-1.7	/	-4.1	/	4.8	-2.5	/
Cc1ccc(S(=O)(=O)NCC(=O)OCC(=O)c2cccs2)cc1	1.2	105.6	0.9	104.2	1.2	-4.3	101.4
CC(=O)NC(Cc1ccc(C)cc1)C(=O)NC1CCN(C(=O)c2cnccn2)CC1 (stereo unspecified)	-2.2	100.1	9.9	93.9	0.8	-8.7	84.2
CCC(C)[C@H](NC(=O)NC1CCCc2ccccc21)C(=O)O (stereo partly specified)	-2.0	102.0	13.2	97.8	9.2	-0.6	83.8
CC(C)C(C(=O)N1CCOCC1)N1C(=O)c2ccccc2C1=O (stereo unspecified)	0.3	93.7	-0.1	101.6	18.9	-4.9	102.0
Cc1noc(C)c1S(=O)(=O)N(CC(=O)N1CCCC1)c1ccc(C(C)C)cc1	1.9	102.3	-0.2	102.3	13.8	-3.0	93.9
CCOC(=O)C1CCCN(c2nc3ccccc3nc2C(C#N)C(=O)NCc2ccccc2)C1 (stereo unspecified)	-8.7	91.7	5.3	103.0	22.0	-2.9	88.8
CCN(CC)S(=O)(=O)N1CCC(C(=O)NC2CCCc3ccccc32)CC1 (stereo unspecified)	10.1	103.2	7.2	89.7	-10.8	-3.1	93.0
CCOC(=O)N1CCN(C(=O)NC23CC4CC(CC(C4)C2)C3)CC1	9.3	/	5.9	/	3.9	-3.0	/
CCN1C(=O)CSc2ccc(C(=O)NCCCN3CCOCC3)cc21	-6.3	90.0	0.3	106.4	29.9	0.4	99.3
Cc1snc(SCC(=O)N/N=C(\N)COc2ccc(F)cc2)c1C#N	-1.5	/	11.3	/	18.7	-2.8	/
COc1ccccc1NC(=O)C1CCCCN1S(=O)(=O)c1ccc(F)cc1 (stereo unspecified)	5.9	81.1	29.7	94.0	18.9	-0.7	/
CCOC(=O)C1CCN(C(=O)NC23CC4CC(CC(C4)C2)C3)CC1	3.8	92.2	13.3	92.7	-1.4	-5.3	94.3
CC(C)CCNC(=O)C1CCCCN1S(=O)(=O)c1ccc(F)cc1 (stereo unspecified)	-6.3	104.5	18.4	97.0	-14.1	-1.9	88.9
Cc1ccc(OCc2nnc(SCC(=O)Nc3cc(C)on3)n2C)cc1	2.1	100.0	-0.8	99.0	20.7	-1.6	96.7
O=C1NCC(O)=C1C=NC12CC3CC(CC(C3)C1)C2	-1.7	78.8&93.6	7.6&12.6	89.4&93.3	-2.8	-0.4	101.2&89.5
CC(=O)Nc1ccc(S(=O)(=O)NCc2ccc(C(=O)NCc3ccc(Cl)cc3)cc2)cc1	0.9	85.0	-4.5	100.6	8.1	-6.2	98.7
Cc1ccc(OCCn2c(C3CC(=O)N(Cc4ccccc4)C3)nc3ccccc32)cc1 (stereo unspecified)	-3.9	68.6	13.2	89.2	-11.7	1.6	46.6
O=C(O)c1cccc(S(=O)(=O)N2CCOCC2)c1	2.5	101.9	15.8	106.3	-35.0	-1.3	90.4
O=C(CSc1nccc(=O)[nH]1)N1c2ccccc2CCc2ccccc21	-9.1	99.3	-4.2	106.7	9.9	0.0	85.9
c1ccc(C2Nc3ccccc3-c3nc4ccccc4n32)cc1 (stereo unspecified)	5.2	98.7	1.2	91.9	-10.0	-1.7	87.6
O=C(c1ccncc1)N1CCN(C(=O)c2cccs2)CC1	-1.8	100.5	14.5	104.8	-7.5	0.2	98.3
CCCC(C)c1nnc(NC(=O)c2cc(C(=O)OC)cc([N+](=O)[O-])c2)s1 (stereo unspecified)	1.2	/	23.0	/	-12.8	-6.8	/
Remaining list, next part:
SMILES	PTPN22 act	HUVEC inhibit	PostGolgi ctrl	Lung fibro prol	S1P2 blocker	S1P2 agonist	H69AR inhibit
CN(C)CCCNc1cc(Cl)c(S(=O)(=O)N2CCCCC2)cc1C(=O)O	2.0	101.9	2.0	101.1	10.8	-2.7	85.2
Cc1cccc(-c2cc(C(=O)Nc3ccc4c(c3)OCCO4)c3ccccc3n2)c1	-9.8	/	8.5	/	32.8	-4.1	/
Cc1ccc(-c2csc3nnc(SCC(=O)N4CCN(Cc5ccccc5)CC4)n23)cc1	2.9	106.1	9.8	107.5	-0.1	-9.8	98.6
CCCNc1nc2c(c(=O)n(C)c(=O)n2C)n1Cc1cccc(C)c1	7.7	99.3	13.5	88.1	33.8	-3.7	85.2
O=C(NCc1cccs1)C1CCN(S(=O)(=O)c2ccc3c(c2)OCCO3)CC1	-0.7	103.8	-0.6	96.9	-2.2	-2.7	89.8
CCCCn1ccc(=O)c2c(C(F)(F)F)nccc21	1.8	88.5	8.4	98.6	-40.1	-6.3	61.4
COc1ccc(-n2c(C)cc(SC)c(C(C)=O)c2=S)cc1	-8.5	/	5.8	/	-1.4	-5.0	/
Cc1ccc(CNC(=O)NC2CCCCC2)cc1	1.9	108.5	9.6	107.9	-10.2	-4.3	104.7
O=C(O)C1CC(=O)N(CCc2ccccc2)C1 (stereo unspecified)	-3.4	95.3	5.4	105.3	7.1	-9.1	98.8
COCCCNc1nc2c(c(=O)n(C)c(=O)n2C)n1Cc1cccc(OC)c1	-5.8	92.3	-2.4	96.0	-6.1	-6.4	90.9
CC(=O)Cc1nsc(NC(=O)c2ccc(-c3cccc(C(F)(F)F)c3)o2)n1	0.2	66.1	2.2	99.7	-14.6	-2.2	21.4*
CC1=C(C(=O)Nc2ccccc2)C(c2ccncc2)n2nnnc2N1 (stereo unspecified)	3.0	94.3	14.3	100.7	7.0	-3.4	66.1
O=C1Nc2c(c(=O)[nH]c(=O)n2-c2ccccc2)C1(Nc1ncccn1)C(F)(F)F (stereo unspecified)	-0.7	107.7	-0.6	104.8	2.5	-5.0	100.7
O=C(Cc1ccc(S(=O)(=O)N2CCOCC2)s1)NCCC(c1ccccc1)c1ccccc1	-3.5	/	22.9	/	-13.4	-3.0	/
C=CCNc1ncnc2c1cnn2-c1ccc(OC)cc1	22.9	/	8.3	/	14.5	-3.9	/
O=C(NCCCN1CCCCCC1)C1CC(=O)N(CCc2ccccc2)C1 (stereo unspecified)	2.1	95.8	-4.7	95.3	3.5	-5.5	93.4
CC(=O)Nc1ccc(S(=O)(=O)N2C3CCCC2CC(NC(=O)C2CCCCC2)C3)cc1 (stereo unspecified)	-9.3	97.1	-4.4	91.4	11.8	-6.9	88.8
CCOc1ccc(OCC)c(NC(=O)C2CCCN(c3ncccn3)C2)c1 (stereo unspecified)	-0.9	90.6	2.3	94.3	-6.3	-5.5	56.2
Cc1cc(C)nc(N2CCC(C(=O)Nc3ccc(Oc4ccccc4)cc3)CC2)n1	4.0	97.7	-8.0	80.0	14.8	-1.3	67.3
CCCNc1nc2c(c(=O)n(C)c(=O)n2C)n1Cc1ccc(F)cc1	-2.1	83.2	5.1	94.5	29.9	-3.5	99.0
Cc1ccccc1NC(=O)C1CC(Cl)=CCC1C(=O)O (stereo unspecified)	-3.0	105.8	0.3	103.6	17.5	-3.6	99.5
COC(=O)c1ccc(N2CCC(C)CC2)c(N)c1	-9.1	103.5	6.2	118.3	14.3	-9.4	104.5
Cc1cc(NS(=O)(=O)c2ccc(NC(=O)Cc3cccs3)cc2)no1	1.3	113.1	3.0	117.2	-11.2	-5.6	96.8
O=S(=O)(NC1CCCCC1NCc1ccco1)c1ccc(Cl)cc1 (stereo unspecified)	2.4	/	-2.5	/	8.7	-4.9	/
Cc1ccc(-n2c3c(c(=O)[nH]c2=O)C(NS(=O)(=O)c2ccc(C)cc2)(C(F)(F)F)C(=O)N3)cc1 (stereo unspecified)	9.1	/	-0.9	/	20.7	-0.4	/
The list goes on:
SMILES	PTPN22 act	HUVEC inhibit	PostGolgi ctrl	Lung fibro prol	S1P2 blocker	S1P2 agonist	H69AR inhibit
CCC(Oc1ccccc1)C(=O)Nc1ccc(S(=O)(=O)NCC2CCCO2)cc1 (stereo unspecified)	5.6	97.4	1.4	102.2	21.9	-5.8	80.7
O=C(NCCCn1ccnc1)c1cc2c(s1)CCCCC2	-0.1	93.9	14.5	100.7	-6.2	-0.5	104.8
COc1ccc(-n2c(=S)[nH]c3cc(C(=O)NCc4ccco4)ccc3c2=O)cc1OC	9.4	102.1	1.8	96.7	27.1	-0.9	81.4
COc1cccc(OC)c1OCCOCCn1cnc2ccccc2c1=O	-2.1	104.4	-4.0	94.5	-11.2	3.9	91.3
COc1ccccc1-n1c(C)cc(SC)c(C(C)=O)c1=S	-6.8	/	3.8	/	2.2	-7.1	/
O=C(NCC(O)c1ccccc1)c1cccc(S(=O)(=O)N2CCOCC2)c1 (stereo unspecified)	5.7	96.2	16.3	89.9	-21.3	-6.1	95.9
CCOC(=O)Nc1cccc(Nc2ccccc2)c1	-3.5	102.6	12.5	93.3	-10.3	-6.0	95.0
CC(C)C(=O)N1CCC(c2nc(-c3ccc(S(=O)(=O)N4CCCC4)cc3)no2)CC1	-17.6	/	-0.9	/	21.2	-7.0	/
CC(C)=CCC(C)(C)CNC(=O)NC1CCCCC1	-3.5	/	25.4	/	-1.9	-3.0	/
CC(=O)Nc1cccc(NC(=O)CSc2nnc(Cc3cccn3C)n2-c2ccc(F)cc2)c1	-1.7	/	10.2	/	-2.2	-6.0	/
N#Cc1cn(CC(=O)N2CCCC2)c2ccccc12	4.9	109.5	18.0	103.1	0.7	-6.3	90.9
CCCOc1ccc(/C(O)=C2/C(=O)C(=O)N(CCN(C)C)C2c2ccc(OC)c(OC)c2)cc1 (stereo unspecified)	-0.6	105.3	7.7	88.0	16.3	-5.5	97.4
COCCCNC(=O)C1CCN(c2ncccn2)CC1	-1.7	98.4	-1.5	104.2	21.4	-6.5	100.7
CC1=C(C(=O)OCc2ccccc2)C(c2cccnc2)n2nnnc2N1 (stereo unspecified)	7.4	108.0	5.9	101.0	17.4	-4.7	98.1

Of the compounds above, eleven contain fluorine.
SMILES	PTPN22 act	HUVEC inhibit	PostGolgi ctrl	Lung fibro prol	S1P2 blocker	S1P2 agonist	H69AR inhibit
O=C(Nc1cccc(C(F)(F)F)c1)C1CCCN(c2ncccn2)C1 (stereo unspecified)	1.4	93.7	16.6	101.9	-7.3	-5.3	69.8
C=CCn1c(CCNC(=O)c2ccccc2F)nnc1SCc1nc2ccccc2c(=O)[nH]1	-2.5	83.4	11.7	88.6	-4.1	-0.9	83.0
Cc1snc(SCC(=O)N/N=C(\N)COc2ccc(F)cc2)c1C#N	-1.5	/	11.3	/	18.7	-2.8	/
COc1ccccc1NC(=O)C1CCCCN1S(=O)(=O)c1ccc(F)cc1 (stereo unspecified)	5.9	81.1	29.7	94.0	18.9	-0.7	/
CC(C)CCNC(=O)C1CCCCN1S(=O)(=O)c1ccc(F)cc1 (stereo unspecified)	-6.3	104.5	18.4	97.0	-14.1	-1.9	88.9
CCCCn1ccc(=O)c2c(C(F)(F)F)nccc21	1.8	88.5	8.4	98.6	-40.1	-6.3	61.4
CC(=O)Cc1nsc(NC(=O)c2ccc(-c3cccc(C(F)(F)F)c3)o2)n1	0.2	66.1	2.2	99.7	-14.6	-2.2	21.4*
O=C1Nc2c(c(=O)[nH]c(=O)n2-c2ccccc2)C1(Nc1ncccn1)C(F)(F)F (stereo unspecified)	-0.7	107.7	-0.6	104.8	2.5	-5.0	100.7
CCCNc1nc2c(c(=O)n(C)c(=O)n2C)n1Cc1ccc(F)cc1	-2.1	83.2	5.1	94.5	29.9	-3.5	99.0
Cc1ccc(-n2c3c(c(=O)[nH]c2=O)C(NS(=O)(=O)c2ccc(C)cc2)(C(F)(F)F)C(=O)N3)cc1 (stereo unspecified)	9.1	/	-0.9	/	20.7	-0.4	/
CC(=O)Nc1cccc(NC(=O)CSc2nnc(Cc3cccn3C)n2-c2ccc(F)cc2)c1	-1.7	/	10.2	/	-2.2	-6.0	/

These rows are one share of the data; count on the stated rates, not on these rows.
